Bioassay records: PubChem, several laboratories
Mtb H37Rv – M. tuberculosis H37Rv growth inhibitors, H37Rv strain (AID 1626). actives 0.95% (n = 220,000). one-dose inhibition, % at 10 µM; IC50 in µM for titrated hits. M. tuberculosis H37Rv growth inhibition; higher % means a stronger effect;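 active means confirmed in a dose series; inconclusive means inhibition above 80% but not taken into the dose series; inactive means below 80% or under 30% at every dose of the series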;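 further: bacteria incubated seven days before Alamar blue readout; 0% = bacteria only wells and 100% = bacteria with antibiotic wells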
Mtb betalactam – beta-lactam sensitization of Mtb H37Rv | M. tuberculosis H37Rv growth with meropenem, percent inhibition; hits of this screen are not shown here | inhibition, % at 25 µM | actives 0.27% (n = 330,000);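 active means about 74% or more and at least 40 points above the plate without the antibiotic, then above 30% in a dose series; inconclusive means first-round hits that could not be retested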;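 further: growth measured after seven days incubation then overnight dye step; 0% = bacteria only wells and 100% = bacteria with antibiotic; twin plates without the antibiotic show which effects depend on it; some results filed as inactive read as strong as hits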
Arbovirus inh – blocks arbovirus infection | actives 0.37% (n = 200,000) | AID 1251 | inhibition, % at 10 µM | arbovirus infection cell-based antiviral screen;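 active means inhibition from about 30%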;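 further: bluetongue infection of BSR cells; cell survival read as ATP light after 72 h; 0% = infected wells without compound and 100% = uninfected wells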
RecA splice inh – Mtb RecA intein splicing inhibition. P9WHJ3. cell-free RecA intein splicing, fluorescence. inhibition, %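 (about 9 µM by stock and volumes)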. actives 0.75% (n = 290,000). AID 2221; in the data active means inhibition above about 30%; inconclusive means no clear call, values can overlap the other calls;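 further: 0% = vehicle wells and 100% = reference inhibitor control wells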
Target sequence (P9WHJ3 whole entry, looked up, canonical isoform): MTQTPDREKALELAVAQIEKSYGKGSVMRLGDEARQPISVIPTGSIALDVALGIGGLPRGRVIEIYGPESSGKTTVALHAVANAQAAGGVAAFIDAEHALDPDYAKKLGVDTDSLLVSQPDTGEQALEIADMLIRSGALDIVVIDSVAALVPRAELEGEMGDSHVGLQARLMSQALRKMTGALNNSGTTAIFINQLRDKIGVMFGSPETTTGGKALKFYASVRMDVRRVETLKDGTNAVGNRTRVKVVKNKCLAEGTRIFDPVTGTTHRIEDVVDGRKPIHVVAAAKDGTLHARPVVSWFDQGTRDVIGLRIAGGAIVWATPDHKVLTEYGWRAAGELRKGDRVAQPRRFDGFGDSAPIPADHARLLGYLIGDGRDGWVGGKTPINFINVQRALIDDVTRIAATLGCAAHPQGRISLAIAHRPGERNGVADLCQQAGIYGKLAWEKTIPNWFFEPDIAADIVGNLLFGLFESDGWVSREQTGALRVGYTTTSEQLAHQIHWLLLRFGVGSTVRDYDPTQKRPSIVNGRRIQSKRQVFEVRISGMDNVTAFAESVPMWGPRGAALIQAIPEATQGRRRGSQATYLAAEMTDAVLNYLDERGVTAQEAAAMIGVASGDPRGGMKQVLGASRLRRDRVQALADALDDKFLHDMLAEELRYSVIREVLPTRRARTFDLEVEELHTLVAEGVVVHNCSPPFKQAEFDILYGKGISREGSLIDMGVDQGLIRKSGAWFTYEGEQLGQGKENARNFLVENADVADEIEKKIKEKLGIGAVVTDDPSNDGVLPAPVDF
YopH PTP inh – inhibitors of Yersinia enterocolitica YopH tyrosine phosphatase; inhibition, %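 (about 10 µM by stock and volumes)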; AID 898; actives 0.16% (n = 140,000); fluorescence Ex485/Em525;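 active means inhibition of 50% or more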;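 further: controls were vehicle for no effect and minimum signal wells for full effect; inactives centre near -20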
Arbovirus inh repeat – recorded beside Arbovirus inh, whose call it bears; inhibition, %; measured here: 10K subset replicate screen; many hits read low in the repeat;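 first of two repeat runs on a subset; 0% = infected and 100% = uninfected wells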
The depositor's hits bear a star; ? = inconclusive; · = no result given. Some of the compounds tested, so the mix of outcomes need not match the whole.

SMILES	Mtb H37Rv	Mtb betalactam	Arbovirus inh	RecA splice inh	YopH PTP inh	others
Cc1nn(S(=O)(=O)N2CCOCC2)c(C)c1Br	-1%	-7	-1	-8.4	·
COc1ccc(CC(=O)Nc2nc(-c3ccncc3)cs2)cc1	-8%	60	2	0.6	·
COc1cc(S(=O)(=O)Nc2c(C)nn(C)c2C)ccc1NC(C)=O	·	-2	·	0.7	·
COc1ccc(O)c(/C=C2/SC(=S)N(Cc3ccccc3)C2=O)c1	·	24	·	6.5	·
COc1cc(CN2CCN(CC3CC3)CC2CCO)cc(OC)c1 (configuration not stated)	·	5	·	1.0	·
Cc1ccccc1NC(=O)c1ccc(S(=O)(=O)N(C)C)cc1	-6%	3	2	0.4	·	Arbovirus inh repeat=8
O=C(Cn1nnc(-c2cccc(C(F)(F)F)c2)n1)NNS(=O)(=O)c1cccc(C(F)(F)F)c1	-7%	0	·	·	·
Cc1ccc(NC(=O)c2ccc([N+](=O)[O-])o2)c(C)c1	6.6µM*	100	-20	-13	·
Cc1ccc(S(=O)(=O)c2nc(-c3cccs3)oc2NCc2cccnc2)cc1	·	?	·	5.1	·
O=C(c1ccc(F)cc1)C1CCN(C(=S)Nc2ccccc2)CC1	-9%	7	19	-2.2	-43
Cc1cc(C)cc(NC(=O)c2ccccc2NC(=O)CCC(=O)O)c1	1%	4	8	-2.2	-21
Cc1c(C(=O)N2CCN(c3ccc(F)cc3)CC2)sc2nc(-c3ccccc3)cn12	·	-11	-3	1.0	-2
CCCCNC(=O)O[C@H]1C[C@@H]2CCN3C(=O)CCC[C@H]([C@H]1CC)[C@H]23	·	-2	·	-4.0	·
COc1ccc(C(=O)NCC(=O)N/N=C/c2c(C)[nH]c3ccccc23)cc1	·	6	·	-4.2	·
COCCn1c(SCC(=O)Nc2cccc(OC)c2)nnc1-c1ccc(Cl)cc1	-1%	-1	4	-0.1	-6
Cc1onc(-c2c(Cl)cccc2Cl)c1C(=O)Nc1ccc(Cl)cn1	17%	57	·	5.6	·
Cc1sc2ncnc(Sc3ccccc3C(=O)Nc3ccccc3Cl)c2c1C	-2%	1	-7	-1.3	-51
c1ccc2c(c1)nc1n2CCN1CCNC1CCCCC1	0%	0	3	0.4	-28	Arbovirus inh repeat=-1
Cn1nnnc1SC1CC(=O)N(c2ccccc2)C1=O (configuration not stated)	-3%	-6	1	·	·
Cc1cc(C(F)(F)F)nn1CC(=O)NCc1ccco1	8%	-9	4	0.6	·
CCOc1ccc(Cl)cc1/C=C1/C(=O)ON=C1C	·	4	·	1.0	·
C=CCn1c(SCC(=O)NC2CCCC2)nc2sc(C)cc2c1=O	·	-14	·	2.8	·
Cc1ccc(S(=O)(=O)N2CCN(c3ccccc3)CC2)cc1C(N)=O	10%	1	10	0.9	·
Cc1cc(OCC(=O)NCCO)cc(C)c1Cl	-2%	0	1	-2.8	-26	Arbovirus inh repeat=-7
COc1cc(CNCCc2c[nH]c3ccccc23)ccc1OCc1ccccc1F	14µM*	98	-42	10	4
C=CCc1ccc(O)c(-c2cc(CC=C)ccc2O)c1	6%	-6	-20	16	·
Cn1c2ccccc2c2nnc(SCC(=O)NCc3ccoc3)nc21	-2%	-20	8	-1.0	·
CCOc1ccccc1NC(=O)CC1NCCNC1=O (configuration not stated)	-13%	?	3	-0.6	-38
O=C(Cn1cnc2ccccc2c1=O)N1CCN(Cc2ccccc2)CC1	0%	-2	0	-3.9	-10
CCOc1cc(CNCCSc2nnnn2C)cc(Br)c1OCc1ccc(F)cc1	23%	48	-9	3.0	-16
CCOC(=O)CCSc1nc(C)c2cc(OC)ccc2n1	3%	4	-6	1.0	-45
O=C(NCc1ccc(F)cc1)C1CCN(S(=O)(=O)c2ccc(Cl)cc2)CC1	·	-2	·	0.9	·
Cn1c(=O)[nH]c(=O)c2c1nc(N/N=C/c1ccncc1)n2Cc1ccc(F)cc1	3%	16	·	-4.1	·
CCN1CCc2c(C#N)c(NCc3ccccc3)nc(NCCO)c2C1	-6%	-3	0	-43	-46
COC(=O)N1CC(c2ccccc2)CC1=O (configuration not stated)	0%	?	-1	-0.4	-13
Cc1cccn2c(=O)c(C=NCc3ccco3)c(Nc3ccc(SC(F)F)cc3)nc12	-1%	0	-19	-1.1	-39
O=C(CN1CCN(c2ccc(F)cc2)CC1)Nc1cccc(C(F)(F)F)c1	2%	-2	12	-2.1	-21
Cc1cccc(N2CCN(C(=O)CCS(=O)(=O)c3ccc4c(c3)NC(=O)CO4)CC2)c1C	·	-3	·	-0.8	·
Nc1nc(SCC(=O)c2ccc(Oc3ccccc3)cc2)n[nH]1	-1%	-8	-4	-1.7	-26
O=C(CSC1=NCCN1)Nc1cccc([N+](=O)[O-])c1	-1%	0	0	6.6	·
O=S(=O)(c1ccc(Cl)cc1)N1CCN=C1SCc1cccnc1	·	4	5	-1.4	·
COCCNC(=O)c1cccc(OC2CCN(Cc3ccccc3C)CC2)c1	·	2	·	0.7	·
COc1cccc(CNC(=O)Cc2ccc(Br)cc2)c1	6%	10	-5	0.4	-29
CCOc1cc2[nH]c(=O)n(CC3CCC(C(=O)NCCCOC)CC3)c(=O)c2cc1OCC (configuration not stated)	0%	30	-2	-1.6	-33
O=C(c1cnccn1)N(c1ccccc1)C1(C(=O)NC2CCCC2)CCCCC1	·	-5	3	-2.9	-20	Arbovirus inh repeat=6
Cc1cccc(-n2[nH]c3c4c(ccc3c2=O)C(=O)c2ccccc2C4=O)c1	19%	11	-17	-12	-19
COc1ccc2oc3cc(C)[n+]([O-])c(-c4ccc(Cl)cc4)c3c2c1	9%	6	45*	1.6	16
Cc1nn(C)c(C)c1S(=O)(=O)N(CC(=O)Nc1nccs1)c1ccc(C(C)C)cc1	0%	-4	6	-2.5	-40	Arbovirus inh repeat=-4
CN(C)c1cccc(C(=O)NCC(c2ccco2)N(C)C)c1 (configuration not stated)	·	-4	·	1.3	·
COc1cc(NC(=O)c2cccs2)c(OC)cc1NC(=O)Nc1ccc(F)cc1	·	2	·	-4.3	·
Cc1cc(S(=O)(=O)N2CCCCC2)c(C)s1	·	-8	·	0.2	·
CCc1nc(SCCO)c2oc3ccccc3c2n1	-1%	3	-1	1.8	-38
CCN(CC(=O)Nc1ccc2c(c1)OCCO2)C(=O)/C=C/c1ccc(F)cc1	-2%	-1	-3	4.7	·
COCCNC(=O)c1ccc(N2CCC3(CC2)OCCO3)c([N+](=O)[O-])c1	0%	0	9	-2.3	-16
Cc1cccc(Cn2c(=O)c3c(nc4n3CCN4Cc3ccco3)n(C)c2=O)c1	-5%	8	-2	1.5	-34
CCn1cc([N+](=O)[O-])c(C(=O)Nc2nc(-c3ccc(C)cc3)c(C)s2)n1	·	5	-22	·	-1
CCNC(=O)CCSc1nnc(-c2ccco2)o1	0%	-5	-3	-1.6	-1
Cc1c(C(=O)N2CCc3ccccc32)cnn1C	-6%	10	7	-2.3	-26
CC(C)=NNC(=O)c1c(O)c2ccccc2[nH]c1=O	-7%	100	·	-2.4	·
CN(c1ccc(C(=O)Nc2ccc3c(c2)OCCO3)cc1)S(C)(=O)=O	-3%	6	-3	2.2	-14
(cont.)
SMILES	Mtb H37Rv	Mtb betalactam	Arbovirus inh	RecA splice inh	YopH PTP inh	others
CC1(C)NC(=O)N(CC(=O)N2CCCC(C(F)(F)F)C2)C1=O (configuration not stated)	·	-2	·	-1.8	·
O=[N+]([O-])c1cccc(-c2nnc3ccc4ccccc4n23)c1	2%	5	20	0.0	-29
CC[C@@]1(O)C(=O)OCc2c1cc1n(c2=O)Cc2cc3c(N)cccc3nc2-1	-10%	-5	·	-4.3	·
Cc1ccc(N(C(C)C(=O)N2CCC(C)CC2)S(C)(=O)=O)cc1C (configuration not stated)	-8%	67	4	-0.5	-34
O=C(NNS(=O)(=O)c1ccccc1Cl)c1nn(-c2ccc(F)cc2)ccc1=O	3%	5	·	0.6	·
Cc1csc(NC(=O)c2cccc(C)c2C)n1	1%	-9	-8	1.4	17
CSc1ccccc1OCc1cc(C(=O)N(C)Cc2ccc(C)o2)no1	·	3	·	7.4	·
O=C(C1CCN(S(=O)(=O)c2cccc3cccnc23)CC1)N1CCc2ccccc21	-11%	-9	-10	3.5	-35
Nc1nc(Cl)nc2ncn(Cc3ccccc3)c12	·	-3	·	6.7	·
O=C(CCNS(=O)(=O)c1ccc2c(c1)CCC(=O)N2)NCc1ccc2c(c1)OCO2	-11%	-3	1	·	-33
CCCc1ccc(-c2cc(C(=O)NC3=NCCS3)c3ccccc3n2)cc1	>100µM*	1	2	-0.6	-32
CC(C)(C)C(=O)NC(=S)Nc1ccc(F)cc1	2%	1	-8	-4.7	-27
O=C(O)C1CCCCC1C(=O)NCCCc1ccccc1 (configuration not stated)	-2%	2	-3	1.7	7
Cc1cc(C)c(NC(=O)COC(=O)CSc2ccc(Br)cc2C)c(C)c1	0%	10	0	2.2	-15
Cc1cc(SCC(=O)c2ccc(O)c(O)c2)nc2ccccc12	-11%	1	4	·	·
CCN(C(=O)CSc1cc(C)c2ccccc2n1)C1CCS(=O)(=O)C1 (configuration not stated)	1%	0	-5	-1.7	·
COCCn1c(SCC(=O)NC2CCCC2)nc2cccnc21	-9%	3	6	1.5	·
NC(=O)CCn1ccc2ccccc21	0%	2	3	-1.0	·

Grouped by structure, the entries above with an aryl methoxy group
SMILES	Mtb H37Rv	Mtb betalactam	Arbovirus inh	RecA splice inh	YopH PTP inh	others
COc1ccc(CC(=O)Nc2nc(-c3ccncc3)cs2)cc1	-8%	60	2	0.6	·
COc1cc(S(=O)(=O)Nc2c(C)nn(C)c2C)ccc1NC(C)=O	·	-2	·	0.7	·
COc1ccc(O)c(/C=C2/SC(=S)N(Cc3ccccc3)C2=O)c1	·	24	·	6.5	·
COc1cc(CN2CCN(CC3CC3)CC2CCO)cc(OC)c1 (configuration not stated)	·	5	·	1.0	·
COc1ccc(C(=O)NCC(=O)N/N=C/c2c(C)[nH]c3ccccc23)cc1	·	6	·	-4.2	·
COCCn1c(SCC(=O)Nc2cccc(OC)c2)nnc1-c1ccc(Cl)cc1	-1%	-1	4	-0.1	-6
COc1cc(CNCCc2c[nH]c3ccccc23)ccc1OCc1ccccc1F	14µM*	98	-42	10	4
CCOC(=O)CCSc1nc(C)c2cc(OC)ccc2n1	3%	4	-6	1.0	-45
COc1cccc(CNC(=O)Cc2ccc(Br)cc2)c1	6%	10	-5	0.4	-29
COc1ccc2oc3cc(C)[n+]([O-])c(-c4ccc(Cl)cc4)c3c2c1	9%	6	45*	1.6	16
COc1cc(NC(=O)c2cccs2)c(OC)cc1NC(=O)Nc1ccc(F)cc1	·	2	·	-4.3	·
